Compound activity from PubChem BioAssay.
PrP UTR inh = inhibition of PrP 5' UTR reporter expression | AID 488862, 2010 | cell-based PrP 5' UTR mRNA reporter, plate reader | 340,000 tested, 0.35% active | inhibition, % (test concentration not listed);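 active means every replicate at 50% or more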;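 further: 0 = median of the neutral control wells; tested in H4 reporter cells; numbers are from one replicate; inactives centre near -14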
ugtP null kill = growth inhibition of ugtP-null S. aureus, primary screen, RN4220 ugtP deletion, OD600; growth inhibition, % (no concentration beside the values); 16 h; some inactives read as strong as hits; AID 1259309, 2017; 330,000 tested, 0.54% active;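 active means z-score under -3 and OD600 up to 0.15 on both plates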;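 further: plate controls were untreated wells for no effect and antibiotic for full effect; wells of about 80 µL received 100 nL stock; the first replicate is given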
Bead autofluor = counter-screen for toxin protease inhibitors: compound fluorescence; AID 624483; compound autofluorescence counterscreen, microsphere flow cytometry; hits give high values; fluorescence intensity (concentration not given with the values); 360,000 tested, 3.1% active;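 active means at least 3 SD above the mean of all compounds, about 16000 in these data; inconclusive means too few beads counted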;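 further: 100 nL of 1 mM stock went into each well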
Sa RN4220 lethal = growth inhibition of S. aureus RN4220, primary screen, OD600 | 16 h | inhibition, % (test concentration not listed) | 330,000 tested, 0.33% active | AID 1259311, 2017;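 active means z-score of -3 or lower and OD600 up to 0.18 on both plates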;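 further: plate controls were untreated cells for no effect and reference antibiotic for full effect; stock transfer was 100 nL into about 80 µL; one replicate is shown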
Mtb hypoxia rep = PubChem AID 1159583; fluorescence inhibition, % (test concentration not listed); M. tuberculosis hypoxia-regulated fluorescent reporter, fluorescence; 300,000 tested, 0.1% active;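 active means 35 to 45% if threefold the growth effect, above 45% if 1.5-fold the growth effect; inactive means the rest, general growth blockers included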;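 further: wells of about 50 µL received 100 nL stock; 0% = vehicle wells and 100% = reference inhibitor wells; whole bacteria with a GFP reporter of the hypoxia response; strong numbers were not always called active; many hits fall short of the cut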
BJeLR viability = MLPCN primary cell-based screen for lethality selective to Ras in HRASV12 cells | BJeLR (HRASV12) viability, CellTiter-Glo ATP luminescence, 48 h; reference of the scale not given here | inhibition, % (concentration not given with the values) | 300,000 tested, 0.17% active;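 active means replicate mean above 50%; inconclusive means above 50% but judged a plate artefact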;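 further: 50 nL library stock added to about 25 µL; numbers are from one replicate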
Mtb hypoxia rep growth = also measured in Mtb hypoxia rep; calls as there; growth inhibition, %; measured here: M. tuberculosis growth (absorbance);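 0% = vehicle and 100% = reference antibiotic; read after six days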
* marks the source's active call; other numbers are inactive results; u = inconclusive; x = no result given; & = joins results of further samples.

A first look:
SMILES	PrP UTR inh	ugtP null kill	Bead autofluor	Sa RN4220 lethal	Mtb hypoxia rep	Mtb hypoxia rep growth	BJeLR viability
CC(NC(=O)c1nc[nH]c1C(=O)NC(Cc1ccccc1)C(=O)OCc1ccccc1)c1ccccc1 (centres undefined)	x	-8&2	x	-0.5&6.6	-1&15	-8&7	x
CC1CCCC(N2CCN(C(=O)c3ccc([N+](=O)[O-])cc3)CC2)C1 (centres undefined)	-6	-2	3140	-0.1	18	3	-1

Results, repeating the preview:
SMILES	PrP UTR inh	ugtP null kill	Bead autofluor	Sa RN4220 lethal	Mtb hypoxia rep	Mtb hypoxia rep growth	BJeLR viability
CC(NC(=O)c1nc[nH]c1C(=O)NC(Cc1ccccc1)C(=O)OCc1ccccc1)c1ccccc1 (centres undefined)	x	-8&2	x	-0.5&6.6	-1&15	-8&7	x
CC1CCCC(N2CCN(C(=O)c3ccc([N+](=O)[O-])cc3)CC2)C1 (centres undefined)	-6	-2	3140	-0.1	18	3	-1
CCN(CC)C(=S)SCC(=O)c1ccccc1	-62	16	8760	23	21	23	5
CCOc1ccccc1NC(=O)NC(C)c1ccncc1 (centres undefined)	-21	-3	2728	6.0	13	-1	8
CCC1(c2ccc(F)cc2)NC(=O)N(CC(=O)N2CCN(S(=O)(=O)c3ccc(C)cc3C)CC2)C1=O (centres undefined)	-6	4	3733	3.9	-9	1	x
O=C(NC(=S)NCC1CCCO1)c1ccc(Cl)cc1Cl (centres undefined)	-30	2	2151	3.5	4	4	-8
CCCCC(=O)NC(=S)Nc1cccc(NC(=O)c2ccco2)c1	-18	79	2170	6.6	13	6	2
COc1cccc(CN(C)C(=O)CNC(=O)c2ccc3c(c2)OCO3)c1OC	-20	1	6208	1.0	-1	3	-7
CN1CCN(c2ccc(Cl)cc2NC(=O)CCN2C(=O)c3ccccc3C2=O)CC1	-26	-3	4358	2.9	12	0	-2
COc1cccc(C2NC(=S)NC3=C2CCc2ccccc23)c1 (centres undefined)	-10	-3	2009	5.0	8	3	-9
CCCC(=O)Nc1c(C(=O)OCC)[nH]c2ccccc12	-16	9	5842	3.4	6	-2	-7
CCOC(=O)C1(Cc2cccc(OC)c2)CCN(Cc2cccn2-c2nccs2)CC1	-8	-3	3650	6.4	11	5	-2
Cc1ccc(N2C(=O)c3ccccc3NC2C(C)Cc2ccc3c(c2)OCO3)cc1 (centres undefined)	-30	-18	9780	-4.2	7	4	-5
CCOc1ccccc1N1CCN(C(=O)/C=C/c2cccc([N+](=O)[O-])c2)CC1	-8	-3	7745	6.3	0	7	2
O=C1[C@H]2[C@@H](/C=C/c3ccccc3)N3C(=O)CN(Cc4ccccn4)C(=O)[C@@]3(Cc3ccccc3)[C@H]2C(=O)N1c1ccccc1	-27	x	4043	x	x	x	3
CCc1ccccc1N(CC(=O)NCc1ccccc1)C(=O)CCC(=O)Nc1ccccn1	-20	-1	6669	-1.5	-7	4	6
CC(=NO)C(C)(C)Nc1ccc(F)cc1	x	6	x	3.6	-5	-5	x
O=C(NC1CCN(Cc2ccccc2)CC1)C1CCCN(S(=O)(=O)c2cccc3nonc23)C1 (centres undefined)	-2	2	6354	5.0	x	x	6
O=C(NC1CN2CCC1CC2)c1cccc(Cl)c1 (centres undefined)	x	10	3984	3.3	8	-1	6
CC1CCN(C(=O)CC(NC(N)=O)c2ccccc2Cl)CC1 (centres undefined)	-19	6	3095	-2.0	-5	2	-10
CCOC(=O)c1cccc(NC(=O)CN(c2ccc(C)cc2)S(=O)(=O)c2c(C)n[nH]c2C)c1	-5	11	3023	-0.4	x	x	5
CC(C)CCC1(CCc2ccncc2)C(=O)NC(=O)NC1=O	-17	5	8885	0.4	5	-8	-4
CCOc1ccc(C=NNC(=O)c2cc(-c3cccn3C)n[nH]2)cc1	x	-12	x	-1.3	8	12	x
O=C(OCc1nnc(-c2ccccc2)o1)c1ccc([N+](=O)[O-])o1	-7	10	4989	3.3	4	-3	-6
CCc1ccc(NC(=O)C2CCN(c3c(N4CCCC4)c(=O)c3=O)CC2)cc1	-2	5	5759	3.9	13	0	1

Random excerpt: 2 records from the list, in no set order.
SMILES	PrP UTR inh	ugtP null kill	Bead autofluor	Sa RN4220 lethal	Mtb hypoxia rep	Mtb hypoxia rep growth	BJeLR viability
CC(NC(=O)c1nc[nH]c1C(=O)NC(Cc1ccccc1)C(=O)OCc1ccccc1)c1ccccc1 (centres undefined)	x	-8&2	x	-0.5&6.6	-1&15	-8&7	x
CCOC(=O)c1cccc(NC(=O)CN(c2ccc(C)cc2)S(=O)(=O)c2c(C)n[nH]c2C)c1	-5	11	3023	-0.4	x	x	5

Carrying on:
SMILES	PrP UTR inh	ugtP null kill	Bead autofluor	Sa RN4220 lethal	Mtb hypoxia rep	Mtb hypoxia rep growth	BJeLR viability
O=C(COC(=O)C1CC(=O)N(c2ccc3c(c2)OCCO3)C1)NC1CCCc2ccccc21 (centres undefined)	-22	-3	2771	-5.7	2	1	-3
CCc1cccc(CC)c1NC(=S)NCC(c1cccnc1)N1CCOCC1 (centres undefined)	-9	10	1953	2.2	2	-2	5
O=C(N=C1SC2CS(=O)(=O)CC2N1Cc1ccccc1)C1CCCO1 (centres undefined)	-8	0	6224	-0.7	-3	-7	6
O=C(CSc1cn(Cc2ccccc2)c2ccccc12)N1CCOCC1	5	-9	4550	-9.0	7	7	8
COC(=O)c1c(NC(NC(=O)c2ccccc2)(C(F)(F)F)C(F)(F)F)sc2c1CCN(C)C2	-18	5	2046	3.9	17	7	-6
CC(=O)Nc1coc2ccc(Br)cc12	-5	-4	4361	0.3	x	x	-2
COc1ccccc1-c1noc(CCC(=O)Nc2cccc(C)c2)n1	-6	4	5823	6.3	x	x	-3
OC1CCCN(Cc2nc(Cc3ccccc3Cl)no2)C1 (centres undefined)	-19	4	2097	1.2	2	9	-31
CN(C)c1nc(Nc2ccccc2)nc(N(C)C)n1	-17	2	4185	6.7	-81	-16	-6
CCOc1ccc(C(=O)Nc2ccc(N3CCN(C(=O)c4ccco4)CC3)cc2)cc1Br	8	1	2804	2.1	-3	-8	x
CC(=O)c1ccc(NC(=O)C(C)OC(=O)COc2ccc(C#N)cc2)cc1 (centres undefined)	-5	7	2481	1.5	9	7	1
CC(=O)C(Sc1nn(C)c(=S)s1)C(=O)Nc1ccccc1 (centres undefined)	-26	35	23581*	43	13	9	4
CN1CCN(c2ccc(Cl)cc2NC(=O)/C=C/c2ccc(F)cc2)CC1	-14	12	4397	12	6	4	3
COc1ccc(OC)c(-c2csc(NC(=O)c3ccccc3F)n2)c1	-8	-15	3610	-1.0	11	12	-2
O=C(O)CN1CCN(Cc2ccc(F)cc2Cl)C1=O	x	9	10457	3.2	7	-2	x
O=C(O)COc1ccc(Br)cc1C=NNc1ccccn1	x	6	x	3.3	9	4	x
COc1ccc(-n2c(Cc3cccn3C)nnc2SCC(=O)Nc2ccccc2F)cc1	-17	4	6197	10	x	x	-17
C#CCOCCOCCOCCNc1nc(N2CCOCC2)nc(N2CCN(C(=O)[C@H](Cc3cc4ccccc4[nH]3)n3cc([C@@H](N)Cc4ccc(O)cc4)nn3)CC2)n1	-6	x	2998	x	x	x	3
Cc1ccc(C(=O)Nc2ccc(N3CCN(S(C)(=O)=O)CC3)cc2)cc1C	-41	5	u	7.3	13	0	9
COC(=O)C1=C(c2cccc(OC)c2OC)C[C@@H]2CC[C@H]1N2C(=O)NCc1ccccc1	-31	x	4407	x	x	x	0
COc1ccccc1S(=O)(=O)Nc1cc(S(=O)(=O)N2CCCCC2)ccc1N1CCOCC1	-6	12	3369	-2.4	10	2	-1
Cc1cc(NC(=O)c2ccco2)ncc1NC(=O)CCc1ccccc1	-13	11	4822	5.2	x	x	5
O=C(NCc1ccccc1Cl)c1ccccc1Oc1ccccc1	-3	30	9746	7.2	10	7	-3
CSc1cccc(NC(=O)COc2ccccc2)c1	-28	-1	3473	4.7	15	10	x
Cc1cc(C)n2c(SCC(=O)NCc3ccc4c(c3)OCO4)nnc2n1	-13	-4	4206	-3.2	-6	-3	-11

Going on with the list:
SMILES	PrP UTR inh	ugtP null kill	Bead autofluor	Sa RN4220 lethal	Mtb hypoxia rep	Mtb hypoxia rep growth	BJeLR viability
CCn1c(SCc2nc3scc(-c4ccccc4)c3c(=O)[nH]2)nnc1-c1ccc(Cl)cc1	-5	14	1964	3.2	10	6	-7
O=C(NCCCN1CCOCC1)c1onc(CSc2ccccn2)c1C(=O)NCCCN1CCOCC1	-13	4	3611	4.2	19	16	6
COc1ccc(-c2csc(NC(=O)C3=COCCO3)n2)c(OC)c1	-41	-16	4704	4.7	7	-2	-5
COc1cccc(/C=N/NC(=O)c2c(C)nc3ccc(Br)cn23)c1O	38	x	2546	x	x	x	15
Cc1noc(C)c1S(=O)(=O)Nc1cccc(C(F)(F)F)c1	-19	-3	5529	7.9	-2	4	-2
COc1ccccc1[C@@H]1C(c2cccc(Cl)c2)=NN(c2ccccc2)[C@H]1C(=O)N1CCOC1=O	-6	x	3416	x	x	x	4
Cc1onc(-c2ccccc2Cl)c1C(=O)NCCn1c(C)cc2ccccc21	-33	-10	1177	-0.2	3	10	-8
O=C(CNc1ccc(Br)cc1)c1ccc(Br)s1	-48	6	3582	2.3	7	9	-10
COCCN(C(=O)COC(=O)CCc1ccccc1)c1c(N)n(Cc2ccccc2)c(=O)[nH]c1=O	-34	11	u	4.7	-3	-6	x
O=C1CC(c2ccc(F)cc2)CC2=C1C=Nc1ccccc1N2 (centres undefined)	-10	x	4453	x	x	x	-10
CCc1nc2ccccc2n1CC(=O)N(C(C)CC)C1CCS(=O)(=O)C1 (centres undefined)	-4	0	3826	3.9	11	9	1
CCOC(=O)N1CCN(C(=O)COC(=O)CN(C)S(=O)(=O)c2ccc(NC(C)=O)cc2)CC1	-17	4	5161	1.9	11	6	10
CC1(C)CC2CC(C)(CN2C(=O)C23CCC(C)(C(=O)O2)C3(C)C)C1 (centres undefined)	-9	-2	5137	11	10	3	7
COc1ccc2c(Cl)c(C(=O)N/N=C/c3ccc4c(c3)OCO4)sc2c1	-18	x	4891	x	x	x	-20
CN(C)C(CNC(=O)c1cccc(S(=O)(=O)Nc2ccc(SC(F)F)cc2)c1)c1ccccc1 (centres undefined)	-24	3	3990	-2.6	7	7	x
COCCN(Cc1cc2ccc(C)cc2n2nnnc12)Cc1nnnn1C(C)(C)C	15	0	2548	1.5	x	x	10
COc1ccc(NC(=O)CNC(=O)c2c(C)nn(C)c2Cl)cc1	-8	-65	4378	6.8	-1	16	5
Cc1noc(C)c1CSCC(=O)Nc1cc(S(=O)(=O)N2CCOCC2)ccc1OCC(F)(F)F	-1	4	5958	2.6	2	4	0
Cc1ccccc1C(=O)Nc1cccc(-c2cn3ccccc3n2)c1	-26	1	4514	3.1	-2	-3	-3
O=C1NN=C(c2ccc(Cl)cc2)CC1c1cccc(Br)c1 (centres undefined)	-8	-19	4849	7.6	2	1	-5
CCOC(=O)c1c(N=CC2=C(O)CC(C)(C)CC2=O)sc2c1CCCC2	x	5	x	3.6	3	4	x
Cc1ccccc1OCCC(=O)OCC(=O)NC(C)c1ccccc1 (centres undefined)	-13	6	2419	4.9	10	8	9
COC(=O)CSc1ncnc2c1sc1nc3c(cc12)COC(C)(C)C3	-8	6	4279	2.4	4	4	8
COc1ccc(C(=O)NCc2ccccc2CN2CCCC2)cc1S(=O)(=O)Nc1ccc(C)cc1	-3	1	u	0.3	-7	2	x
c1ccc2c(NCC3CCCO3)nc(-c3ccncc3)nc2c1 (centres undefined)	-4	0	4038	4.3	6	6	4

Next part
SMILES	PrP UTR inh	ugtP null kill	Bead autofluor	Sa RN4220 lethal	Mtb hypoxia rep	Mtb hypoxia rep growth	BJeLR viability
CCO[C@@H]1OC(C(=O)N2CCN(Cc3ccc4c(c3)OCO4)CC2)=C[C@H](c2cn(C(C)=O)c3ccccc23)[C@H]1CCCO	-10	x	3473	x	x	x	8
Cc1noc(C)c1CSc1nc2ccccc2nc1NS(=O)(=O)c1ccc(Cl)cc1	-9	28	5027	34	1	-7	6
CCOC(=O)c1c(-c2ccc(-c3ccccc3)cc2)csc1NC(=O)c1cccc(N2C(=O)CCC2=O)c1	-6	4	2341	-2.0	-3	-5	2
CCN(CC(=O)NCc1cccs1)C(=O)c1ccc(-c2ccc(F)cc2)o1	-25	1	3511	-3.8	1	3	x
NC(=O)N1CCCC1C(=O)Nc1ccc(Cl)c(Cl)c1 (centres undefined)	-30	4	4587	0.3	x	x	3
CCSc1nnc(NC(=O)C(C(F)(F)F)C(F)(F)F)s1	-21	2	23475*	6.1	5	13	0
OCCN(Cc1ccccc1)c1ncnc2sccc12	10	1	4049	3.6	19	2	15
